Assay outcomes: PubChem BioAssay, National Center for Advancing Translational Sciences (NCATS)
Cruzain inh Det: qHTS Assay for Promiscuous and Specific Inhibitors of Cruzain (with detergent) | 0.43% of 200,000 active | Cruzipain (Trypanosoma cruzi), P25779 | purified cruzain, Z-FR-AMC fluorescence, 0.01% Triton | Potency, µM, without a hit: max response, negative = inhibition, usual class: inhibitors;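 also: plate controls were neutral wells for no effect and buffer without enzyme for full effect; nearly all actives have a fitted effect of over 40% in size; top concentration of the series not given in the record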
Target sequence (P25779 123-467 limits assumed): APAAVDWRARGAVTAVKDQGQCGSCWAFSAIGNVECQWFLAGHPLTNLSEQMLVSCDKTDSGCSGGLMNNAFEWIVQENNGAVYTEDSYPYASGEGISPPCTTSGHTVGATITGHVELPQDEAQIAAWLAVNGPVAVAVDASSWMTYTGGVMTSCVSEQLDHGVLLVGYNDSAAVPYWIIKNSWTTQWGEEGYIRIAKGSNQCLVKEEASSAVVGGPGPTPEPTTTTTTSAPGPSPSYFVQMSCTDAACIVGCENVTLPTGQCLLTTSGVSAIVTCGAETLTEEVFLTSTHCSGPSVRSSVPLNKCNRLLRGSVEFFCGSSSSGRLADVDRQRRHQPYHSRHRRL
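Read-out: AMC fluorescence (360 nm excitation, 450 nm emission), four reads over 2 min, first-to-third difference used. Conditions: cruzain 1.5 nM, Z-FR-AMC 2 uM, pH 5.5 acetate, 5 mM DTT, 0.01% Triton X-100.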
NS1 function inh: qHTS Assay for Inhibitors of Influenza NS1 Protein Function; S. cerevisiae slowed by influenza A NS1, growth recovery by OD600; Potency, µM (top dose mostly 46.1 µM), for inactives: at the highest dose activity, positive = more growth; AID 2326, 2010; 0.4% of 270,000 active; active means well fitted rising curve with a large enough effect; inconclusive means small, poorly fitted or top-dose-only effect; inactive means no such curve, though single readings can be large or run the other way; also: nearly all actives have a fitted effect of over 50% in size
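In this qHTS, NS1 from influenza A is expressed in budding yeast, where it slows growth. Cells are switched from glucose to 2% galactose medium (pH 6.0, -URA), treated with compound, and growth recovery is read at OD600.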
LASV entry inh: qHTS for Inhibitors of binding or entry into cells for Lassa Virus. Lassa virus pseudotype entry inhibition, cell reporter; control for the full effect not named in the record. Potency, µM (titrated, usually from 37.9 µM), for the others: top-dose activity change, negative = inhibition, hits mostly inhibitors. 1.2% of 300,000 active; active means well fitted inhibition curve with a large enough effect; inconclusive means small, poorly fitted or top-dose-only effect, or effect the other way; inactive means flat fitted curve, though single readings scatter; tested in HEK293 cells; also: % is scaled to controls: 0 for no effect and ±100 for the full control effect; nearly all actives have a fitted effect of over 50% in size; luciferase read-out
SARS PLpro yeast: qHTS of Yeast-based Assay for SARS-CoV PLP | S. cerevisiae expressing SARS-CoV PLpro, growth rescue; control for the full effect not named in the record | Potency, µM (highest dose often 32.9 µM), for the others: top-dose activity, positive = growth rescue | 0.19% of 330,000 active; active means well fitted rising curve with a large enough effect; inconclusive means small, poorly fitted or top-dose-only effect; inactive means no such curve, though single readings can be large or run the other way; also: 0% is about no effect; nearly all actives have a fitted effect of over 55% in size; growth read by luminescence after 48 h
Cruzain inh noDet: qHTS Assay for Promiscuous and Specific Inhibitors of Cruzain (without detergent); purified cruzain, Z-FR-AMC fluorescence, no detergent; 2.3% of 200,000 active; Potency, µM, for the others: max response, negative = inhibition, most hits filed as inhibitors; Cruzipain (Trypanosoma cruzi), P25779;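 also: plate controls were enzyme without inhibitor for no effect and buffer without enzyme for full effect; nearly all actives have a fitted effect of over 40% in size; top concentration of the series not given in the record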
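Purified cruzain at 1.5 nM, pre-incubated 15 min with compound at room temperature in 100 mM sodium acetate pH 5.5, 5 mM DTT, 0.00005% Triton X-100. Reaction started with 2 uM Z-FR-AMC; AMC fluorescence increase over 60 s gives rate.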
MARV entry inh: qHTS for inhibitors of binding or entry into cells for Marburg Virus | 1.8% of 300,000 active | Marburg virus pseudotyped entry inhibition, cell reporter; control for the full effect not named in the record; about a third of the inactives were read at about 46 µM | Potency, µM (series often up to 37.8 µM), for the others: at the highest dose activity change, negative = inhibition, usual class: inhibitors; active = well fitted inhibition curve with a large enough effect; inconclusive = small, poorly fitted or top-dose-only effect, or effect the other way; inactive = flat fitted curve, though single readings scatter; tested in HEK293 cells; about a fifth of its hits are not listed in these tables; also: % is scaled to controls: 0 for no effect and ±100 for the full control effect; luciferase read-out
RE007 growth inh: qHTS Assay for Inhibitors of the HIV-1 protein Vpr | S. pombe RE007 Vpr strain, BacTiter-Glo ATP luminescence, 24 h; control for the full effect not named in the record | Potency, µM (highest dose often 92.2 µM), for the others: at the top dose activity change, negative = less growth | 0.21% of 360,000 active; active = well fitted falling curve with a large enough effect; inconclusive = small, poorly fitted or top-dose-only effect; inactive = no such curve, though single readings can be large or run the other way;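 also: % is scaled to controls: 0 for no effect and ±100 for the full control effect; nearly all actives have a fitted effect of over 50% in size; the assay follows cell death caused by Vpr and the record does not say whether a fall means rescue or toxicity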
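Fission yeast strain RE007, carrying one chromosomally integrated HIV-1 vpr copy, was seeded at OD 0.01 in PMG+AL medium with 23 nL pinned compound. After 24 h at 30 °C and 99% humidity, viability was read by BacTiter-Glo luminescence.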
2A StopGo: High Throughput Screening for Foot and Mouth Disease Virus Antivirals | Potency, µM (doses to about 57.9 µM), inactives show at the highest dose signal change, negative = less light | AID 1159524, 2015 | 1.2% of 410,000 active | human cells with a luciferase reporter of 2A StopGo recoding; control for the full effect not named in the record; active = well fitted falling curve with a large enough effect; inconclusive = small, poorly fitted or top-dose-only effect; inactive = no such curve, though single readings can be large or run the other way; tested in HEK293T cells; also: % is scaled to controls: 0 for no effect and ±100 for the full control effect; nearly all actives have a fitted effect of over 45% in size; luciferase light after 4 h
An asterisk follows results filed as active; ? = inconclusive; . = no result given; & = joins results of further samples; [ ] = dose if it differs, or a comment. Unless noted, calls follow the shape of the dose curve; as a rule, active = well fitted curve in the direction sought with a large enough effect; inconclusive = small, poorly fitted or top-dose-only effect, or another doubt; inactive = no such curve, though single readings can be large; an effect the other way counts as inactive or inconclusive. Potency is read from the fitted curve at half-maximal effect.

Order of values: Cruzain inh Det | NS1 function inh | LASV entry inh | SARS PLpro yeast | Cruzain inh noDet | MARV entry inh | RE007 growth inh | 2A StopGo
> COc1cccc(C2=N/C(=C\N(C)C)C(=O)O2)c1
  -9.1% | -15% | 3% | -1% | -3% | ? | -7% | 33%[activator]
> CC(NC(=O)c1nn(C)c(=O)c2ccccc12)c1ccc(F)cc1 (configuration not stated)
  1.7% | -52% | -15% | -2% | 15% | -12% | -4% | .
> COc1ccccc1OCCCn1cc(C(=O)C2CC2)c2ccccc21
  . | 7% | -18% | -2% | . | ? | 8% | -17%
> COc1cccc(-c2nnc3n(CCc4ccccc4)c(=O)c4ccccc4n23)c1O
  -2.7% | . | 4%[46.1 µM] | . | -4% | 2%[46.1 µM] | . | ?
> O=C(O)CCSc1nc2ccccc2s1
  11% | 0% | -14%[14.3 µM] | -4% | 2% | -22% | 11% | 40µM*
> CN(Cc1ccccc1)C(=O)c1c[nH]c2ccc(S(=O)(=O)Nc3ccccc3F)cc2c1=O
  -5.7% | . | 8%[46.1 µM] | . | -7% | 17%[46.1 µM] | . | 13%
> CCC(C)(C)C1CCC2(CC1)NC(=O)N(CC(=O)NC(C)CCc1ccccc1)C2=O (configuration not stated)
  . | . | -25%[46.1 µM] | 1% | . | 12% | 0% | -13%
> CCOC(=O)NC1(C(F)(F)F)NC(=O)N(c2cccc(C(F)(F)F)c2)C1=O (configuration not stated)
  -3.2% | 5% | -7% | 11% | 17% | 5% | 22% | -18%
> Oc1cccc(-c2nc3ccccc3s2)c1
  -4.8% | -53% | ? | -11% | -10% | 7.1µM* | ? | -44%
> N#CCCN(C1CCCCC1)S(=O)(=O)c1cccc2nsnc12
  -5.4% | 0% | 13% | 6% | -7% | -11%&-11% | -17% | -7%
> CCOc1ccc(S(=O)(=O)N2CCC(C(=O)NCc3cccnc3)CC2)cc1
  . | 3% | 6% | 0% | . | -13% | -15% | -16%
> CC#CCN1c2ccccc2[C@]23C[C@@H](C(=O)OC)N(C(=O)C4CCC4)C2=NC(C(=O)OC)=C(C(=O)OC)[C@H]13
  . | -17% | . | -3% | . | . | 5% | -26%
> COc1ccc(N2CCN(CCCNC(=O)Cn3c(=O)c4cccn4c4ccccc43)CC2)cc1
  . | 5% | . | ? | . | . | 10% | -15%
> COc1cc(C(=O)OCC(=O)N2CC(C)OC(C)C2)cc(OC)c1OC (configuration not stated)
  . | 2% | 11% | -2% | . | 9%[46.1 µM] | -2% | -17%
> N#C/C(=C\c1ccc(/C=C(/C#N)c2nn(CCO)c(N)c2C#N)cc1)c1nn(CCO)c(N)c1C#N
  -7.8% | 4% | 5% | 11% | -14% | ? | 8% | 0%
> O=C(NCCC1=CCCCC1)c1cc(COc2ccc(F)cc2Cl)on1
  . | -11% | . | -2% | . | . | -13% | -5%
> NS(=O)(=O)c1ccc(Nc2c([N+](=O)[O-])cncc2[N+](=O)[O-])cc1
  . | -7% | 3%[46.1 µM] | 4% | . | -18%[46.1 µM] | -19% | ?
> COc1ccc(NC(=O)Cn2nnc(-c3nc(-c4ccncc4)no3)c2N)cc1OC
  -2.6% | . | -2%[46.1 µM] | . | 11% | . | . | -8%
> CC1(C)CC(=O)C2=C(C1)Nc1ncnn1C2c1cccs1 (configuration not stated)
  . | . | 8%[46.1 µM] | 1% | . | 12%[46.1 µM] | -4% | -11%
> CC(=O)N1CCc2ccc(N)cc21
  . | . | -25%[46.1 µM] | . | . | -12%[46.1 µM] | 14% | -11%
> COc1ccc2cnn(-c3ccc(OC(F)(F)Cl)cc3)c(=O)c2c1OC
  . | 0% | -13%[46.1 µM] | -3% | . | ? | 6% | 0%
> C/C(=C\C(=O)c1ccc(Br)cc1)Nc1cccc(Cl)c1
  . | . | ? | . | . | ? | 0% | 52%[activator]
> O=C(CCN1C(=O)/C(=C/c2ccc3c(c2)OCO3)SC1=S)NNC(=O)c1cccnc1
  . | . | 1% | -1% | . | ? | 10% | 15%
> Cc1cccc(NS(=O)(=O)c2ccc3[nH]c(=O)oc3c2)c1C
  . | . | -11% | -11% | . | -2% | ? | 8%
> CCN(CC)CCN1C(=O)C(=O)/C(=C(/O)c2ccc(OCC(C)C)cc2)C1c1ccncc1 (configuration not stated)
  -1.0% | -14% | . | 5% | 5% | -2% | . | .
> Cc1ccc(S(=O)(=O)n2nc(-c3ccccc3)nc2NCc2ccccc2Cl)cc1
  -2.1% | . | -19%[46.1 µM] | . | -24% | ? | . | -20%
> CC(C(=O)N1CCN(c2ccccc2)CC1)c1ccc([N+](=O)[O-])cc1 (configuration not stated)
  . | 2% | . | 2% | . | . | -18% | -13%
> CC(Nc1cc(=O)n(C)c(=O)n1C)c1ccccc1 (configuration not stated)
  -1.2% | -7% | 21% | 16% | 13% | -8% | -2% | -3%
> S=c1[nH]nc(Nc2ccccc2Cl)s1
  . | . | 3% | 2% | . | ? | 21% | 18%
> N#Cc1ccccc1S(=O)(=O)N1CCN(C(=O)CN2C(=O)NC3(CCCC3)C2=O)CC1
  . | . | 25% | -2% | . | ? | 7% | -4%
> Cc1cc(C(=O)Nc2sccc2C#N)c2ccccc2n1
  . | 7% | -3% | -9% | . | -3%[46.1 µM] | 3% | -20%
> O=C(c1cccc([N+](=O)[O-])c1)N1CCN(c2ccc(N3CCOCC3)nn2)CC1
  . | . | 28% | -2% | . | 0% | -20% | -14%
> O=C(CCSCc1ccccc1Cl)N1CCN(c2ccccn2)CC1
  -1.2% | -18% | 1% | -2% | -3% | 17% | -9% | 22%
> Cc1cccc(NC(=O)C2CCC(CNS(=O)(=O)c3ccc4c(c3)CCCC(=O)N4)CC2)c1C (configuration not stated)
  0.3% | . | -3%[46.1 µM] | . | -11% | . | . | -21%
> CC(=O)NC12CC3CC(C1)CC(C(=O)N(C)Cc1cccc(Cl)c1Cl)(C3)C2
  . | 18% | -4%[46.1 µM] | -3% | . | ? | -11% | 13%
> Cc1cccc(-c2nc(CS(=O)CC(=O)NC(C)CCc3ccccc3)c(C)o2)c1 (configuration not stated)
  . | -3% | ? | -7% | . | -27%[46.1 µM] | -10% | -18%
> Cc1ccc(OCC(=O)NNC(=O)c2ccoc2C)c(Br)c1
  0.7% | 9% | ? | 10% | -4% | 29% | -4% | 26%
> CN(Cc1ccccc1)S(=O)(=O)c1ccc(NC(=S)NC(=O)C2CCCCC2)cc1
  -4.5% | -13% | -11% | 9% | ? | ? | -8% | -16%
> Cc1c(NC(=O)c2cc(-c3ccc(Br)cc3)on2)c(=O)n(-c2ccccc2)n1C
  -0.9% | -24% | ? | 2% | 25% | ? | 7% | -17%&-26%
> CCC(=O)N1CCN(c2ccccc2NC(=O)Cc2ccccc2)CC1
  -0.3% | 17% | 3% | 1% | -20% | -3% | 15% | 7%
> COc1ccc(N2CC(NS(=O)(=O)c3ccc4ccccc4c3)CC2=O)cc1OC (configuration not stated)
  . | . | -16% | 1% | . | -8%[46.1 µM] | 22% | 24%
> C/C(=N/NC(=O)Nc1ccccc1)c1ccc(C)cc1
  -1.8% | -4% | ? | ? | -6% | ? | -22% | -2%
> CCCCOc1ccc(S(=O)(=O)NCc2csc(-c3ccc(OC)cc3)n2)cc1
  -3.8% | . | 4%[46.1 µM] | . | 5% | -5%[46.1 µM] | . | -13%
> CC(=O)Nc1ccc(NC(=O)C(C)N2CCN(S(=O)(=O)c3ccc(C)cc3)CC2)cc1 (configuration not stated)
  . | -8% | ? | 1% | . | ? | 12% | -6%
> CCN(CC(=O)Nc1ccc(NC(C)=O)cc1)C(=O)c1n[nH]c(=O)c2ccccc12
  . | . | 1% | -3% | . | 4%[46.1 µM] | 11% | -2%
> CC(=O)N1CCc2c(sc3c2c(=O)n(-c2ccccc2)c(=O)n3Cc2ccccc2Cl)C1
  -4.2% | 12% | 2% | 3% | ? | -12% | 0% | -20%
> O=C1C=C(OCc2ccccc2)CN1
  -0.2% | -14% | -1% | -1% | -1% | ? | 3% | -4%
> O=C(CCC(=O)N1CCOc2ccc(Cl)cc21)NCc1ccccc1
  . | -2% | . | 1% | . | . | 10% | 17%
> COc1ccc(CCn2nnnc2C(CC(C)C)N2CCN(c3ncccn3)CC2)cc1OC (configuration not stated)
  1.0% | -18% | 0% | -1% | ? | -2%[46.1 µM] | -4% | 12%
> O=C(/C=C/c1cccc([N+](=O)[O-])c1)Nc1cc(C(=O)O)cc(C(=O)O)c1
  . | . | -13% | 1% | . | 22%[14.2 µM] | -7% | -1%
